E coli growth – E. coli growth inhibition, primary screen, OD600 | OD600 absorbance (concentration not given with the values) | Escherichia coli growth, 23 h; stronger effect = lower value | 0.21% of 330,000 active;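 active means OD600 absorbance below the run mean of sample wells minus 3.6 SD, in any replicate, cut at about 0.56 in these data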;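 further: stock transfer was 300 nL into about 60 µL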
* = called active by the depositor; & = joins results of further samples. Only part of the results is shown, so the mix of outcomes need not match the whole.

SMILES	E coli growth
Cc1noc(C)c1NC(=O)Nc1ccc2c(c1)C(=O)N(C(C)CO)CC(C)C(CN(C)C)O2 (centres undefined)	0.675
CCOC(=O)C1C2COc3ccc(OC)cc3C2N2C(=O)c3ccc(F)cc3NC(=O)[C@@]12C (some centres undefined)	0.676
COc1ccc(C=CC(=O)c2ccccc2O)cc1	0.662
CCOC(=O)C1=CN2CCCC2CC1=O (centres undefined)	0.659
CCCCCCCCCOC(=O)C1N2C(=O)C(NC(=O)COc3ccccc3)C2SC1(C)C (centres undefined)	0.68
COCCNC(=O)C1CCCN1S(=O)(=O)c1cccc2cccnc12 (centres undefined)	0.688
COC(=O)[C@@]1(Cc2ccc(OC)cc2)C2c3cc(C(=O)N(C)C)[nH]c3CC2CN1C(=O)c1ccccc1 (some centres undefined)	0.583
CN(CCC#N)C(=O)COC(=O)c1c2c(nc3ccccc13)C(=Cc1ccco1)CC2	0.725
Cc1ccc2c(c1)C1C(CO2)C(c2ccccc2)[C@]2(C)C(=O)Nc3ccccc3C(=O)N12 (some centres undefined)	0.699
CC(=CC(=O)c1ccc(Cl)cc1)NCc1ccc2c(c1)OCO2	0.635
CNC(=C[N+](=O)[O-])NCCSCc1csc(CN(C)C)n1	0.706&0.704
CC1OC(OC2C(O)C(C)OC(OC(=O)[C@]34CCC(C)(C)CC3C3=CCC5[C@@]6(C)CC(O)C(OC7OC(CO)C(O)C(O)C7O)[C@@](C)(C(=O)O)C6CC[C@@]5(C)[C@]3(CO)CC4)C2OC2OC(C)C(OC3OCC(OC4OC(CO)C(O)C(O)C4O)C(O)C3O)C(O)C2O)C(O)C(O)C1O (some centres undefined)	0.72
C#CCOCCOCCOCCNc1nc(N2CCN(C(=O)C(Cc3ccc(O)cc3)n3cc(C(N)C(C)CC)nn3)CC2)nc(N2CCN(C(=O)C(C(C)CC)n3cc(C(N)COC(=O)C(F)(F)F)nn3)CC2)n1 (centres undefined)	0.677
C#CCOCCOCCOCCNc1nc(N2CCN(C(=O)C(CCCCN)n3cc(CCC(=O)O)nn3)CC2)nc(N2CCN(C(=O)C(C(C)O)n3cc(CCCCN)nn3)CC2)n1 (centres undefined)	0.689
Cc1ccc(N2C(=O)N3C(c4ccc(F)cc4)C4C(=O)N(C5CCCCC5)C(=O)C4[C@]3(C)C2=O)cc1 (some centres undefined)	0.685
COc1ccc(SCC(Cc2ccccc2)N2CCN(C)CCC2=O)cc1 (centres undefined)	0.672
CCN1CC2C3C(=O)N(Cc4ccccc4)C(=O)C3[C@](Cc3ccccc3)(C1=O)N2C(=O)c1ccc(Cl)c(Cl)c1 (some centres undefined)	0.668
O=C(NCc1ccccc1)C1=CC(C2CCCCC2)CC(OCc2ccc(CO)cc2)O1 (centres undefined)	0.652&0.733
COC(=O)C1=C(C)NC(=O)C1=Cc1ccc(CNS(=O)(=O)c2ccc(C)cc2)o1	0.72
CC1CN(C(C)CO)C(=O)c2cccc(NC(=O)Nc3ccc(C(F)(F)F)cc3)c2OC1CN(C)S(=O)(=O)c1cccs1 (centres undefined)	0.695
N#Cc1ccc(C23CC4(C2)C(CN(CC2CCCCC2)C4c2ccccc2)C3c2ccc(Cl)nc2)cc1 (centres undefined)	0.707
O=C1NCC(c2ccccc2)N(CCC23CC4CC(CC(C4)C2)C3)C1=O (centres undefined)	0.713
Cc1ccc(C(=O)N2C3CN(C)C(=O)[C@@]2(Cc2ccccc2)C2C(=O)N(Cc4ccccc4)C(=O)C32)cc1 (some centres undefined)	0.674
CC1CN(C(C)CO)C(=O)c2cccc(NS(=O)(=O)c3ccc(F)cc3)c2OC1CN(C)CC1CCCCC1 (centres undefined)	0.699
NC(=O)CCC1NC(=O)C(CO)NC(=O)c2cc([N+](=O)[O-])cc(I)c2NCCCC(C(N)=O)NC(=O)C(Cc2ccc(O)cc2)NC1=O (centres undefined)	0.706
CCCSc1ccc(C2C3C(=O)N(CC)C(=O)C3[C@]3(C(=O)OC)CCCN23)cc1OC (some centres undefined)	0.681
CC=CC(=O)Nc1cccc(C2=NOC3(C2)CC(C(N)=O)N(C(=O)c2ccccc2C(=O)c2ccccc2)C3)c1 (centres undefined)	0.624
COc1ccc(CN2CCC3C=CCc4cccc(c43)C2)cc1 (centres undefined)	0.627
CCOC(=O)C1C2COc3ccc(Cl)cc3C2N2C(=O)CN(CC3CCCO3)C(=O)[C@@]12C (some centres undefined)	0.718
C[C@]12CCC(=O)C=C1CCC1C3CCC(C(=O)CO)[C@@]3(C=O)CC(O)C12 (some centres undefined)	0.667
COc1ccc(C=CC(=O)c2ccc3ccccc3c2O)cc1CN1CCOCC1	0.661
CCN1CC2C3C(=O)N(Cc4ccccc4)C(=O)C3[C@](C)(C1=O)N2C(=O)c1ccc(Cl)c(Cl)c1 (some centres undefined)	0.679
COc1ccc(NC(=O)Nc2cccc3c2OC(CN(C)C(=O)NC2CCCCC2)C(C)CN(C(C)CO)C3=O)cc1 (centres undefined)	0.676
Cc1ccc(S(=O)(=O)Oc2ccc(C=C(NC(=O)c3ccccc3)C(=O)Nc3ccccc3)cc2)cc1	0.713
CC(C)(C)OC(=O)NCCCCCNC(=O)c1[nH]cnc1C(=O)NC(Cc1ccccc1)C(=O)OCc1ccccc1 (centres undefined)	0.722
O=C(O)C1=CC(C2CCCCC2)CC(OCc2ccc(CO)cc2)O1 (centres undefined)	0.647
CC1CCN(C(=O)C=Cc2ccc(C(C)(C)C)cc2)CC1	0.684
CCSc1ccc(C2C3C(=O)N(C)C(=O)C3[C@]3(C(=O)OC)CCCCN23)cc1 (some centres undefined)	0.683
C=CCOC(=O)C1=CC(c2ccc(Br)cc2)C(CCCO)C(OCC)O1 (centres undefined)	0.621&0.698
Cc1noc(C)c1S(=O)(=O)Nc1ccc2c(c1)C(=O)N(C(C)CO)CC(C)C(CN(C)Cc1ccc(C(=O)O)cc1)O2 (centres undefined)	0.681

Ordered by number of heavy atoms (rising): 3 of the compounds above
SMILES	E coli growth
O=C1NCC(c2ccccc2)N(CCC23CC4CC(CC(C4)C2)C3)C1=O (centres undefined)	0.713
CC=CC(=O)Nc1cccc(C2=NOC3(C2)CC(C(N)=O)N(C(=O)c2ccccc2C(=O)c2ccccc2)C3)c1 (centres undefined)	0.624
COc1ccc(NC(=O)Nc2cccc3c2OC(CN(C)C(=O)NC2CCCCC2)C(C)CN(C(C)CO)C3=O)cc1 (centres undefined)	0.676

Continuation.
SMILES	E coli growth
CCCC=C(CCC)C(NS(=O)(=O)c1cccc2cccnc12)c1ccc(C(=O)OC)cc1 (centres undefined)	0.685
COc1cccc(N2C(CC(=O)O)c3cc(C(F)(F)F)ccc3S2(=O)=O)c1 (centres undefined)	0.646
CC(O)C1CNC(=O)C(=O)N1CCc1cccc(F)c1 (centres undefined)	0.65
CC1CCC[C@]2(O1)OC(CCO)CC(O)C2O (some centres undefined)	0.664&0.597&0.721&0.686&0.715&0.692&0.689&0.696
COc1ccc(C2CC(=O)C=C(c3cccc(CO)c3)C2)cc1 (centres undefined)	0.677
C#CCOCCOCCOCCNc1nc(N2CCN(C(=O)C(C(C)C)n3cc(CCO)nn3)CC2)nc(N2CCN(C(=O)C(C(C)C)n3cc(CCO)nn3)CC2)n1 (centres undefined)	0.644
O=C1C=C(c2ccc3c(c2)oc2ccccc23)CC(c2ccc(Cl)cc2)C1 (centres undefined)	0.74
O=C1NCC(Cc2ccc(O)cc2)N(CC2CCCCC2)C1=O (centres undefined)	0.677&0.65
CCN1CC2C3C(=O)N(C)C(=O)C3[C@](CC)(C1=O)N2C(=O)c1ccccc1 (some centres undefined)	0.687
COc1cc(C=C2SC(=NCc3ccccc3)N(Cc3ccccc3)C2=O)ccc1O	0.719
COc1nccnc1NS(=O)(=O)c1ccc(NC=C2CCCCC2=O)cc1	0.651
C#CCCOC(=O)N1C2=NC(C(=O)OC)=C(C(=O)OC)C3N(CC=C)c4ccccc4[C@]23CC1C(=O)OC (some centres undefined)	0.692
CC(C)C(C(=O)N1CCNCC1)n1cc(CCO)nn1 (centres undefined)	0.706
CC(C)(C)C1C=C(C(=O)NC2CC2)OC(OCc2ccc(CO)cc2)C1 (centres undefined)	0.689&0.661
C#CCOCCOCCOCCNc1nc(N2CCN(C(=O)C(CCCCN)n3cc(C(N)CO)nn3)CC2)nc(N2CCN(C(=O)C(CCC(=O)O)n3cc(C(N)Cc4ccc(O)cc4)nn3)CC2)n1 (centres undefined)	0.713
CCN1C(=O)C2C(c3ccc(-c4ccc(OC)cc4)cc3)N[C@@](CC(C)C)(C(=O)OC)C2C1=O (some centres undefined)	0.688
Cc1ccccc1S(=O)(=O)N1CC(C(=O)O)=CCC1c1ccc(Cl)cc1 (centres undefined)	0.668
CCCOc1ccc(C(O)=C2C(=O)C(=O)N(CCCn3ccnc3)C2c2cccs2)cc1 (centres undefined)	0.734
Cc1noc(C)c1NC(=O)Nc1ccc2c(c1)CC(=O)N(C(C)CO)CC(C)C(CN(C)C(=O)Nc1cccc3ccccc13)O2 (centres undefined)	0.658
COc1ccc(C(=O)N2CC3(CC(c4ccc(Cl)cc4)=NO3)CC2C(=O)NCC(N)=O)cc1 (centres undefined)	0.628
CCCN1CCCCC1C(=O)Nc1c(C)cccc1C (centres undefined)	0.701
CC(C)(C)OC(=O)NCc1ccc(NC(=O)c2nc[nH]c2C(=O)NC(Cc2ccccc2)C(=O)OCc2ccccc2)cc1 (centres undefined)	0.733
CC1CN(C(C)CO)C(=O)c2cc(NC(=O)Nc3ccc(C(F)(F)F)cc3)ccc2OC1CN(C)C(=O)Nc1ccc(F)cc1 (centres undefined)	0.713
O=C(CN1C(=O)SC(=Cc2ccc(N3CCOCC3)cc2)C1=O)N1CCOCC1	0.722
COc1ccc2c(c1)C(=O)N1C3c4cc(Cl)ccc4OCC3C(c3ccccc3)[C@]1(C)C(=O)N2 (some centres undefined)	0.723
CC1CN(C(C)CO)C(=O)c2cc(NC(=O)C3CC3)ccc2OC1CN(C)C (centres undefined)	0.661
O=C(C1=CC(c2ccccc2)CC(OCc2ccc(CO)cc2)O1)N1CCN(Cc2ccc3c(c2)OCO3)CC1 (centres undefined)	0.681&0.683
CSC1=NSC2=NC(=O)C(=Cc3coc4ccc(O)cc4c3=O)C(=N)N12	0.664
CCN1CC2C3C(=O)N(C)C(=O)C3[C@](Cc3ccccc3)(C1=O)N2C(=O)c1ccc(Br)cc1 (some centres undefined)	0.674
O=C(Nc1ccccc1)C1=CC(C2CC2)CC(OCCCCO)O1 (centres undefined)	0.722
COc1ccc(C=C(CC(=O)O)c2nc3ccccc3o2)cc1	0.73
CCOC(=O)C1C2COc3cc(OC)ccc3C2N2C(=O)N(c3cccc(F)c3)C(=O)[C@]12C (some centres undefined)	0.641&0.7
O=C(O)CC1c2cc(C(F)(F)F)ccc2S(=O)(=O)N1C1CCCC1 (centres undefined)	0.681
CN1CCN(C(=O)C2=CC(C3CC3)CC(OCc3ccc(CO)cc3)O2)CC1 (centres undefined)	0.71&0.691
O=C1N=C2SCCN2C1=Cc1ccccc1Cl	0.71
O=C(O)C(=O)C(=Cc1ccccc1)c1ccc2ccccc2n1	0.713
CCOC(=O)C=CC1CC2(CCO1)SCCCS2 (centres undefined)	0.671
COP1(=O)CC(O)C(O)C(COCc2ccccc2)O1 (centres undefined)	0.689
O=C(C1=CC(C2CC2)CC(OCc2ccc(CO)cc2)O1)N1CCN(Cc2ccc3c(c2)OCO3)CC1 (centres undefined)	0.664&0.664
CCOC(=O)CC1c2cc(C(F)(F)F)ccc2S(=O)(=O)N1Cc1ccccc1 (centres undefined)	0.69

3 of these compounds, set out differently.
> COP1(=O)CC(O)C(O)C(COCc2ccccc2)O1 (centres undefined)
- E coli growth = 0.689
> O=C(O)C(=O)C(=Cc1ccccc1)c1ccc2ccccc2n1
- E coli growth = 0.713
> CCOC(=O)CC1c2cc(C(F)(F)F)ccc2S(=O)(=O)N1Cc1ccccc1 (centres undefined)
- E coli growth = 0.69

Three successive compounds out of the list so far:
SMILES	E coli growth
Cc1noc(C)c1NC(=O)Nc1ccc2c(c1)C(=O)N(C(C)CO)CC(C)C(CN(C)C)O2 (centres undefined)	0.675
CCOC(=O)C1C2COc3ccc(OC)cc3C2N2C(=O)c3ccc(F)cc3NC(=O)[C@@]12C (some centres undefined)	0.676
COc1ccc(C=CC(=O)c2ccccc2O)cc1	0.662

(continued)
SMILES	E coli growth
CCC1=NN2C(=N)C(=Cc3cccn3-c3ccc(Cl)cc3)C(=O)N=C2S1	0.694
COc1ccc(C2C=CCN(C(=O)C3CCCC3)C(Cc3ccccc3)C(=O)N2Cc2ccc(F)cc2)cc1 (centres undefined)	0.701
COC(CC(O)CC(O)COCc1ccccc1)OC (centres undefined)	0.656&0.662&0.668&0.707
O=C1CCCC=CCC(CC(=O)N(CCO)Cc2ccccc2)C(=O)N2CCCC2CO1 (centres undefined)	0.678&0.682
CC(CCc1ccccc1)NC(=O)C=Cc1ccc(Cl)cc1 (centres undefined)	0.677
COc1ccc(C2C3C(=O)N(C(C)(C)C)C(=O)C3[C@]3(CC(C)C)C(=O)N(c4ccccc4)C(=O)N23)cc1 (some centres undefined)	0.676
O=C(O)C(=Cc1c(C(=O)O)[nH]c2cc(Cl)cc(Cl)c12)c1ccccc1	0.72
CC(NCCN1CCOCC1)=C(C#N)C(N)=O	0.677
COc1ccccc1CN1C(CC(=O)O)c2cc(F)ccc2S1(=O)=O (centres undefined)	0.672
CC(=O)C1=C(C)N(Cc2ccccc2)C(=O)NC1c1cccs1 (centres undefined)	0.694
COC(=O)C1=C(C)N(Cc2ccco2)C(=O)NC1c1cccc(C(F)(F)F)c1 (centres undefined)	0.7
O=C(C1=CC(c2ccc3c(c2)OCO3)CC(OCc2ccc(CO)cc2)O1)N1CCN(Cc2ccc3c(c2)OCO3)CC1 (centres undefined)	0.728
CCC(CCC=C(C)C)C(=O)N(Cc1ccccc1)c1ccccc1 (centres undefined)	0.714
CN1CC2C3C(=O)N(C)C(=O)C3[C@](C)(C1=O)N2C(=O)c1ccc(Cl)cc1 (some centres undefined)	0.645
O=C1CC2c3c(cccc3CN1Cc1ccc(Br)cc1)CC(O)C2O (centres undefined)	0.684

Source: PubChem BioAssay (ICCB-Longwood Screening Facility, Harvard Medical School)
